Bioassay records deposited in PubChem BioAssay by National Center for Advancing Translational Sciences (NCATS).
RE007 growth inh = qHTS Assay for Inhibitors of the HIV-1 protein Vpr; S. pombe RE007 Vpr strain, BacTiter-Glo ATP luminescence, 24 h; control for the full effect not named in the record; Potency, µM (series often up to 92.2 µM), inactives show at the highest dose activity change, negative = less growth; 360,000 tested, 0.21% active; AID 651644, 2012; active = well fitted falling curve with a large enough effect; inconclusive = small, poorly fitted or top-dose-only effect; inactive = no such curve, though single readings can be large or run the other way;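 note: % is set by controls: 0 for no effect and ±100 for the full control effect; nearly all actives have a fitted effect of over 50% in size; the assay follows cell death caused by Vpr and the record does not say whether a fall means rescue or toxicity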
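Fission yeast RE007 carrying one integrated HIV-1 vpr copy, seeded at OD 0.01 in PMG+AL medium with 23 nL pinned compound. Grown 24 h at 30 degrees; viability read by BacTiter-Glo luminescence after 5 min.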
SARS PLP yeast = qHTS of Yeast-based Assay for SARS-CoV PLP | S. cerevisiae expressing SARS-CoV PLpro, growth rescue; control for the full effect not named in the record | Potency, µM (doses to about 32.9 µM), without a hit: top-dose activity, positive = growth rescue | 330,000 tested, 0.19% active | AID 485353, 2010; note: 0% is about no effect; nearly all actives have a fitted effect of over 55% in size; growth read by luminescence after 48 h
Cruzain inh noDet = qHTS Assay for Promiscuous and Specific Inhibitors of Cruzain (without detergent). 200,000 tested, 2.3% active. Potency, µM, for inactives: max response, negative = inhibition, usual class: inhibitors. purified cruzain, Z-FR-AMC fluorescence, no detergent. Cruzipain (Trypanosoma cruzi), P25779. AID 1476, 2009; active = well fitted curve in the direction sought with a large enough effect; inconclusive = small, poorly fitted or top-dose-only effect, or another doubt; inactive = no such curve, though single readings can be large; an effect the other way counts as inactive or inconclusive;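 note: plate controls were enzyme without inhibitor for no effect and buffer without enzyme for full effect; nearly all actives have a fitted effect of over 40% in size; top concentration of the series not given in the record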
Target sequence (P25779 123-467 limits assumed): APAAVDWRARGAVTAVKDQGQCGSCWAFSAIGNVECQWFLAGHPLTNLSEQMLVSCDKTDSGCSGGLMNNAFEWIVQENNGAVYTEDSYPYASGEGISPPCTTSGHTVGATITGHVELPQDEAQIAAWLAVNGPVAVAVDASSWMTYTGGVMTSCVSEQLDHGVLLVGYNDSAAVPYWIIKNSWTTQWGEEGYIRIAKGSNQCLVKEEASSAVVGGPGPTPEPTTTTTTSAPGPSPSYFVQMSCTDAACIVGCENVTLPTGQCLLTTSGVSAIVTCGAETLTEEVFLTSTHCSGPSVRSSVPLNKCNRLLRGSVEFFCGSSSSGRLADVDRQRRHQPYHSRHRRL
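Purified cruzain at 1.5 nM, pre-incubated 15 min with compound at room temperature in 100 mM sodium acetate pH 5.5, 5 mM DTT, 0.00005% Triton X-100. Reaction started with 2 uM Z-FR-AMC; AMC fluorescence increase over 60 s gives rate.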
Marburg entry inh = qHTS for inhibitors of binding or entry into cells for Marburg Virus. Potency, µM (top dose mostly 37.8 µM), without a hit: at the top dose activity change, negative = inhibition, actives largely listed as inhibitors. AID 540276, 2011. Marburg virus pseudotyped entry inhibition, cell reporter; control for the full effect not named in the record; about a third of the inactives were read at about 46 µM. 300,000 tested, 1.8% active; active = well fitted inhibition curve with a large enough effect; inconclusive = small, poorly fitted or top-dose-only effect, or effect the other way; inactive = flat fitted curve, though single readings scatter; tested in HEK293 cells; about a fifth of its hits are not listed in these tables; note: % is set by controls: 0 for no effect and ±100 for the full control effect; luciferase read-out
LASV entry inh = qHTS for Inhibitors of binding or entry into cells for Lassa Virus. 300,000 tested, 1.2% active. AID 540256, 2011. Lassa virus pseudotype entry inhibition, cell reporter; control for the full effect not named in the record. Potency, µM (doses to about 37.9 µM), without a hit: top-dose activity change, negative = inhibition, most hits filed as inhibitors; active means well fitted inhibition curve with a large enough effect; inconclusive means small, poorly fitted or top-dose-only effect, or effect the other way; inactive means flat fitted curve, though single readings scatter; tested in HEK293 cells; note: % is set by controls: 0 for no effect and ±100 for the full control effect; nearly all actives have a fitted effect of over 50% in size; luciferase read-out
Cruzain inh Det = qHTS Assay for Promiscuous and Specific Inhibitors of Cruzain (with detergent). Cruzipain (Trypanosoma cruzi), P25779. purified cruzain, Z-FR-AMC fluorescence, 0.01% Triton. Potency, µM, for inactives: max response, negative = inhibition, actives largely listed as inhibitors. 200,000 tested, 0.43% active. AID 1478, 2009; active = well fitted curve in the direction sought with a large enough effect; inconclusive = small, poorly fitted or top-dose-only effect, or another doubt; inactive = no such curve, though single readings can be large; an effect the other way counts as inactive or inconclusive;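 note: plate controls were neutral wells for no effect and buffer without enzyme for full effect; nearly all actives have a fitted effect of over 40% in size; top concentration of the series not given in the record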
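Detergent-containing run (0.01% Triton X-100) in acetate buffer pH 5.5 with 5 mM DTT: enzyme at 1.5 nM final, 15 min compound preincubation at room temperature, then 2 uM Z-FR-AMC substrate. Activity taken as 60 s fluorescence increase at 360/450 nm.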
NS1 function inh = qHTS Assay for Inhibitors of Influenza NS1 Protein Function; S. cerevisiae slowed by influenza A NS1, growth recovery by OD600; Potency, µM (highest dose often 46.1 µM), without a hit: at the highest dose activity, positive = more growth; 270,000 tested, 0.4% active; AID 2326, 2010; note: actives are rising curves; nearly all actives have a fitted effect of over 50% in size
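Growth recovery, yeast-based: influenza A NS1 expressed in S. cerevisiae causes slow growth, and suppressors are detected by OD600. The parent strain without NS1 is used as positive control.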
StopGo reporter = High Throughput Screening for Foot and Mouth Disease Virus Antivirals; Potency, µM (titrated, usually from 57.9 µM), inactives show at the highest dose signal change, negative = less light; AID 1159524, 2015; 410,000 tested, 1.2% active; human cells with a luciferase reporter of 2A StopGo recoding; control for the full effect not named in the record; active = well fitted falling curve with a large enough effect; inconclusive = small, poorly fitted or top-dose-only effect; inactive = no such curve, though single readings can be large or run the other way; tested in HEK293T cells; note: % is set by controls: 0 for no effect and ±100 for the full control effect; nearly all actives have a fitted effect of over 45% in size; luciferase light after 4 h
Numbers without * were called inactive; [ ] = dose if it differs, or a comment. Unless noted, calls come from the whole dose curve; as a rule, active means well fitted rising curve with a large enough effect; inconclusive means small, poorly fitted or top-dose-only effect; inactive means no such curve, though single readings can be large or run the other way. Potency is the fitted concentration of half-maximal effect.

Cc1c(Cl)cccc1NC(=S)NCC1COc2ccccc2O1 (stereo unspecified) was read as RE007 growth inh -16%, SARS PLP yeast -27%, Marburg entry inh inconclusive, LASV entry inh 12%[46.1 µM], NS1 function inh -28% and StopGo reporter 0%.
For Cc1ccc(NC(=O)C2C(=O)N(C)c3ccccc32)cc1 (stereo unspecified) the results were RE007 growth inh -2%, SARS PLP yeast 0%, Cruzain inh noDet -7%, Marburg entry inh -3%, LASV entry inh -1%, Cruzain inh Det -2.5%, NS1 function inh 28% and StopGo reporter 26%.
O=C(COc1ccccc1)NC(=S)Nc1ccc2c(c1)Cc1ccccc1-2 was read as RE007 growth inh 0%, SARS PLP yeast 8%, Cruzain inh noDet inconclusive, Marburg entry inh -3%, LASV entry inh inconclusive, Cruzain inh Det -9.0%, NS1 function inh 25% and StopGo reporter -5%.
`COC(=O)c1c(NC(=O)c2ccco2)sc2c1CCC2` gave RE007 growth inh -17%, SARS PLP yeast -7%, Cruzain inh noDet -3%, Marburg entry inh 3%, LASV entry inh 9%, Cruzain inh Det -12%, NS1 function inh -5% and StopGo reporter -7%.
`CCCCc1cc2c(cc1NC(=O)CN1CCCCC1)OCCO2` gave RE007 growth inh 2%, SARS PLP yeast -2%, Marburg entry inh inconclusive, LASV entry inh -1%, NS1 function inh -3% and StopGo reporter 7%.
`Cn1cnnc1SCc1ccccc1Br` gave RE007 growth inh 3%, SARS PLP yeast -9%, Cruzain inh noDet 0%, Marburg entry inh -3%, LASV entry inh 14%, Cruzain inh Det 2.2%, NS1 function inh 6% and StopGo reporter 10%.
For CC(C)(C)c1ccc(C(=O)NCCn2c(N)c(C#N)c3nc4ccccc4nc32)cc1 the results were RE007 growth inh -2%, SARS PLP yeast 7%, Cruzain inh noDet inconclusive, Marburg entry inh -30%, LASV entry inh -19%, Cruzain inh Det -4.0%, NS1 function inh 5% and StopGo reporter -28%.
COc1ccc(CNC(=O)c2cc(-c3ccc(OC)c(OC)c3)nc3n[nH]c(-c4ccc(C)cc4)c23)cc1 was read as Cruzain inh noDet inconclusive, LASV entry inh -16%[46.1 µM], Cruzain inh Det 0.5% and StopGo reporter -19%.
Screening Cc1ccc(C2C(C#N)=C(N)N(c3cccnc3)C3=C2C(=O)CCC3)c(C)c1 (stereo unspecified) returned RE007 growth inh 12%, SARS PLP yeast 1%, Marburg entry inh inconclusive, LASV entry inh -5%[46.1 µM], NS1 function inh 8% and StopGo reporter -5%.
Screening Cc1ccc(N2CCN(C(=O)CCc3nc4ccccc4[nH]3)CC2)c(C)c1 returned RE007 growth inh 6%, SARS PLP yeast -8%, Cruzain inh noDet -2%, Cruzain inh Det 5.0%, NS1 function inh -49% and StopGo reporter inconclusive.
For Cc1ccc(NC(=O)CN2C(=O)N/C(=C/c3cc(C)n(-c4cccc(C(=O)O)c4)c3C)C2=O)cc1 the results were RE007 growth inh -9%, SARS PLP yeast 1%, Marburg entry inh 3%[46.1 µM], LASV entry inh -3%[46.1 µM] and StopGo reporter 7%.
`CC(Oc1ccc(F)cc1)c1nnc(SCC(=O)N(c2ccccc2)C2CCS(=O)(=O)C2)o1` (stereo unspecified) gave RE007 growth inh 10%, SARS PLP yeast 2%, Marburg entry inh -18%, LASV entry inh inconclusive and StopGo reporter inconclusive.
O=C(CCCc1ccncc1)c1ccccc1 was read as RE007 growth inh -1%, Marburg entry inh 0%, LASV entry inh 12% and StopGo reporter 15%.
Screening CCC(C)(C)NC(=O)C(c1ccc(OC)cc1)N(CC1CCCO1)C(=O)CCC(=O)Nc1cc(C)on1 (stereo unspecified) returned RE007 growth inh 7%, SARS PLP yeast -2%, Cruzain inh noDet inconclusive, Marburg entry inh 0%[46.1 µM], LASV entry inh 11%, Cruzain inh Det -2.0%, NS1 function inh -6% and StopGo reporter -1%.
`CCOc1ccc(NC(=O)N2CCN(CC)CC2)cc1` gave RE007 growth inh 9%, SARS PLP yeast -8%, Cruzain inh noDet 6%, Marburg entry inh 8%, LASV entry inh 6%, Cruzain inh Det 1.0%, NS1 function inh 1% and StopGo reporter -5%.
CN(Cc1ccccc1)C(=O)CN(C)S(=O)(=O)c1ccc(F)cc1 was read as RE007 growth inh -2%, SARS PLP yeast 0%, NS1 function inh 2% and StopGo reporter 1%.
For COCCn1c(SCC(=O)N2CCCC(C)C2)nnc1-c1ccco1 (stereo unspecified) the results were RE007 growth inh -8%, SARS PLP yeast 0%, Marburg entry inh -8%[46.1 µM], LASV entry inh 4%[46.1 µM], NS1 function inh 1% and StopGo reporter 10%.
For COc1ccc(S(=O)(=O)N2CCN(C(=O)CNC(=O)c3ccc4c(c3)OCO4)CC2)cc1 the results were RE007 growth inh -8%, SARS PLP yeast -1%, Marburg entry inh 0%, LASV entry inh 14% and StopGo reporter -3%.
CC(C)c1ccc(OCC(=O)NCc2n[nH]c(=O)c3ccccc23)cc1 was read as RE007 growth inh -2%, SARS PLP yeast -6%, Marburg entry inh -3%[46.1 µM], LASV entry inh 0% and StopGo reporter -19%.
`Cc1ccccc1CSCC(=O)N1CCN(c2ccccc2)CC1` gave RE007 growth inh 17%, SARS PLP yeast 23%, Cruzain inh noDet -2%, Marburg entry inh inconclusive, LASV entry inh 9%, Cruzain inh Det -6.4%, NS1 function inh -9% and StopGo reporter -6%.
COc1cccc(CNC(=O)C2CCN(S(=O)(=O)c3ccc(-n4cnnn4)cc3)CC2)c1 was read as RE007 growth inh -4%, SARS PLP yeast 15%, Marburg entry inh 0%[46.1 µM], LASV entry inh -4%[46.1 µM], NS1 function inh -2% and StopGo reporter -6%.
Screening COCc1cc(C)nc(OCC(=O)N/N=C/c2ccccc2O)c1C#N returned RE007 growth inh -8%, SARS PLP yeast 6%, Marburg entry inh inconclusive, LASV entry inh inconclusive and StopGo reporter -2%.
Screening COc1cc2c(cc1C=O)OCO2 returned RE007 growth inh 3%, SARS PLP yeast -12%, Cruzain inh noDet inconclusive, Marburg entry inh 29%, LASV entry inh inconclusive, Cruzain inh Det -8.2%, NS1 function inh 7% and StopGo reporter 21%.
`Cc1cc(Cl)ccc1OCC(=O)N1CCCN(C(=O)COc2ccc(Cl)cc2C)CC1` gave RE007 growth inh -16%, SARS PLP yeast -96%, Cruzain inh noDet inconclusive, Marburg entry inh 15µM*, LASV entry inh inconclusive, Cruzain inh Det -6.2%, NS1 function inh -62% and StopGo reporter inconclusive.
Screening CC(Nc1nc2ncn(Cc3ccccc3)c2c(=O)[nH]1)C(=O)O (stereo unspecified) returned RE007 growth inh -3%, SARS PLP yeast -3%, Cruzain inh noDet -1%, Marburg entry inh -1%, LASV entry inh 3%, Cruzain inh Det 5.1%, NS1 function inh 11% and StopGo reporter -19%.
`CC(C)CN(C(=O)Cn1nnc(-c2ccc(F)cc2)n1)C1CCS(=O)(=O)C1` (stereo unspecified) gave RE007 growth inh 2%, SARS PLP yeast -5%, Marburg entry inh 10%[46.1 µM], LASV entry inh 20% and StopGo reporter -7%.
Screening CCOc1cccc(C(=O)Nc2c(C(=O)c3ccc(OC)cc3)oc3ccccc23)c1 returned Cruzain inh noDet 10%, Marburg entry inh 5%[46.1 µM], LASV entry inh 11%[46.1 µM], Cruzain inh Det -0.3% and StopGo reporter -15%.
Screening O=C(CCn1c(=O)c2cccn2c2cccnc21)N1CCN(c2ccccc2)CC1 returned Cruzain inh noDet -1%, LASV entry inh 8%[46.1 µM], Cruzain inh Det -3.7% and StopGo reporter -15%.
COc1ccc(-c2c(C)nc(N)nc2-c2ccc(OC)cc2O)cc1 was read as RE007 growth inh 1%, SARS PLP yeast -1%, Marburg entry inh -8%[46.1 µM], LASV entry inh -39%[46.1 µM], NS1 function inh -4% and StopGo reporter -18%.
For Cc1ccc(/C=N/NC(=O)c2nnn(-c3nonc3N)c2CSc2ccc(Cl)cc2)o1 the results were RE007 growth inh 20%, SARS PLP yeast 0%, NS1 function inh 2% and StopGo reporter inconclusive.
Screening COc1cc(NC(=O)NCCn2nnc3cc(S(=O)(=O)N(C)C)ccc32)cc(OC)c1 returned Cruzain inh noDet 6%, LASV entry inh 16%[46.1 µM], Cruzain inh Det 1.3% and StopGo reporter 6%.
`CCCCCCc1cc2cc(-c3nnc(-c4cc(OC)c(OC)c(OC)c4)o3)c(=O)oc2cc1O` gave RE007 growth inh -7%, SARS PLP yeast -12%, Cruzain inh noDet 5%, Marburg entry inh -2%, LASV entry inh 3%, Cruzain inh Det 2.5%, NS1 function inh 3% and StopGo reporter 14%.
Screening COc1ccc(C(CCN2CCN(c3ccccc3)CC2)c2c(O)cc(OC)cc2OC)cc1 (stereo unspecified) returned RE007 growth inh -11%, SARS PLP yeast 2%, NS1 function inh -1% and StopGo reporter -28%.
`Cc1cc(C)n(C(=O)CCCn2nc(C)c([N+](=O)[O-])c2C)n1` gave RE007 growth inh 3%, SARS PLP yeast 0%, Marburg entry inh -1%[46.1 µM], LASV entry inh -18%[46.1 µM] and StopGo reporter -12%.
`COc1cccc(N2CCN(S(=O)(=O)c3cccc4cccnc34)CC2)c1` gave RE007 growth inh 1%, SARS PLP yeast -2%, Marburg entry inh inconclusive, LASV entry inh inconclusive and StopGo reporter -25%.
For CCc1ccc2oc(C(=O)Nc3ccc(S(N)(=O)=O)cc3)c(C)c2c1 the results were RE007 growth inh 15%, SARS PLP yeast -1%, Marburg entry inh 1%, LASV entry inh 0%[46.1 µM], NS1 function inh 10% and StopGo reporter -10%.
